Screening data as filed in PubChem BioAssay.
A488 autofl: qHTS Assay for Spectroscopic Profiling in A488 Spectral Region | compound autofluorescence, A488 spectral region, dye equivalency; hits give high values | max dye equivalency, M | 59,000 compounds, 0.1% hits | AID 591, 2007; active = above 10 nM dye equivalent; inconclusive = 1 to 10 nM; inactive = 1 nM or less; about half of its hits are not listed in these tables;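 note: highest value over a series up to 38 µM; compound alone in buffer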
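Compound autofluorescence was read in 100 mM Tris pH 8.0 after 15 min at room temperature, ex 480 nm/em 540 nm. Intensities were converted to A488 dye-equivalent concentration using an on-plate six-point A488 standard curve.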
A647 autofl: qHTS Assay for Spectroscopic Profiling in A647 Spectral Region | Compound fluorescence, A647 channel (570/671 nm), Tris buffer | 59,000 tested, under 10 active | AID 592, 2007 | max dye-equivalent concentration, M; active means above 1 µM dye equivalent; inconclusive means 0.1 to 1 µM; inactive means 0.1 µM or less;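 note: values scaled relative to a standard on each plate; highest value over a series up to 38 µM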
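Fluorescence read (570 nm ex, 671 nm em) after 15 min RT incubation of compounds in 100 mM Tris buffer, pH 8.0; values expressed as dye-equivalent concentration against a six-point A647 standard series on each plate.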
Resorufin autofl: qHTS Assay for Spectroscopic Profiling in Resorufin Spectral Region; Compound fluorescence, resorufin region 547/598 nm, buffer; hits give high values; max dye-equivalent concentration, M; 59,000 compounds, 0.04% hits; AID 588, 2007; active = above 10 nM dye equivalent; inconclusive = 1 to 10 nM; inactive = 1 nM or less; a few of its hits are not listed in these tables; note: highest value over a series up to 38 µM
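Read-out: intrinsic compound fluorescence at ex 547/em 598 nm after 15 min at RT in pH 8.0 Tris (100 mM). Values expressed as resorufin-equivalent concentration from per-plate standard series.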
AID923: qHTS Assay for Allosteric/Competitive Inhibitors of Caspase-1: Spectroscopic Profiling in AFC Spectral Region; compound fluorescence, AFC spectral region (405/520 nm); almost no hit is shown here; 75,000 compounds, 1.1% hits; Potency, µM (highest dose often 57.5 µM), for the others: at the highest dose fluorescence increase, actives largely listed as activators; active = well fitted activation curve with a large enough effect; inconclusive = small, poorly fitted or top-dose-only effect;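 note: potency is the fitted concentration of half-maximal effect; 0% is about no effect; scaled to a free AFC standard on each plate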
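Titrations up to 57 uM read every 20 sec for 3 min (405/520 nm) with 50 nM caspase 1 and 5 uM Ac-WEHD-AFC, pH 7.5 HEPES buffer. Fluorescence-vs-time intercept gave baseline, scaled against on-plate AFC standard.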
TSHR ag: qHTS Assay for Agonists of the Thyroid Stimulating Hormone Receptor | Thyrotropin receptor (Homo sapiens), P16473 | HEK293-CNG-TSHR cells (CNG channel as cAMP sensor), membrane potential dye, cAMP | Potency, µM (top dose mostly 57.1 µM), for inactives: at the top dose activation, most hits filed as activators | 73,000 compounds, 0.48% hits; active = well fitted activation curve of enough size with the parental cells flat; inconclusive = any curve in the parental cells; inactive = parental cells flat and receptor cells flat or falling; note: potency is the fitted concentration of half-maximal effect; % of control where 0% means no effect; weak receptor curves with flat parental cells got no call and are not listed
Target sequence (P16473 whole entry, looked up): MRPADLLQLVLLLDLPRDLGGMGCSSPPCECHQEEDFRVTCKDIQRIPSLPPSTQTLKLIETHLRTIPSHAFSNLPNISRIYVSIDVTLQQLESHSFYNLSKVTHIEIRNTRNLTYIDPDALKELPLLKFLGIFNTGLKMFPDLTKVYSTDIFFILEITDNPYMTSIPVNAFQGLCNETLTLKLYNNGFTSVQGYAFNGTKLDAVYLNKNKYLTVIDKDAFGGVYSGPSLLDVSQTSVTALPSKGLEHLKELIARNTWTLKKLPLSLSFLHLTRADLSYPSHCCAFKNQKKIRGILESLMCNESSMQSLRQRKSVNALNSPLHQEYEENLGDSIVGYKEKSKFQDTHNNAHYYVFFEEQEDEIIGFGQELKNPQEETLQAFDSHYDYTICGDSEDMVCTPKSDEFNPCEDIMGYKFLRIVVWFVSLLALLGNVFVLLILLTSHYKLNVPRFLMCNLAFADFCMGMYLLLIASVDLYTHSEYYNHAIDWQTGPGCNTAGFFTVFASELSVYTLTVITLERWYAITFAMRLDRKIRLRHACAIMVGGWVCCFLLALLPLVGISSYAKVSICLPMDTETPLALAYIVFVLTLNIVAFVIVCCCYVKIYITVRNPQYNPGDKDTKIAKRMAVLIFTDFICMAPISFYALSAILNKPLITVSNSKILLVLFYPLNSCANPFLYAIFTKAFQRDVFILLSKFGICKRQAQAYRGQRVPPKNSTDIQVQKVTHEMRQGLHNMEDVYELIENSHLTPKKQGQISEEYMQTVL
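HEK 293 cells stably expressing TSHR and a modified CNG channel, with CNG-only parental cells as counterscreen, were preloaded 60 min at room temperature with membrane potential dye containing 100 uM RO 20-1724. Compound exposure was 30 min, and depolarization was read as fluorescence at 590 nm.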
An asterisk follows results filed as active; i = inactive; ? = inconclusive; nt = no result given; & = joins results of further samples; [ ] = another dose, or the depositor's remark. An excerpt (hit frequency here may not be typical).

Structure,A488 autofl,A647 autofl,Resorufin autofl,AID923,TSHR ag
O=C(Cc1ccccc1)Nc1ccc(-c2nnc(-c3ccco3)o2)cc1,i,5.3e-09,i,-0.2%,9%
CCCCCOc1ccc(C2C(C(C)=O)=C(C)Nc3ncnn32)cc1OC (centres undefined),i,3.5e-09,i,-0.2%,4%
Cc1ccc(OCC(=O)N2CCCCC2)c(Br)c1,i,8.6e-09,i,-1.7%,?
CCN(CC)c1nc2n(c(=O)n1)CCO2,i,3.9e-09,i,-1.9%,0%
O=C(Cc1cccs1)OCC(=O)c1ccco1,i,1e-08,i,-1.1%,-7%
O=C(c1ccc(Br)o1)N1CCN=C1SCc1cccnc1,nt,nt,nt,3.9%,5%
Cc1ccc(S(=O)(=O)c2cccc(S(=O)(=O)N3CCCC3)c2)cc1S(=O)(=O)N1CCCC1,nt,nt,nt,-1.1%,?
COc1ccc(S(=O)(=O)NC(C)C(=O)Nc2ccccc2F)cc1 (centres undefined),i,1.4e-08,i,-2.6%,2%
CCOCCn1c(SCC)nc2c1c(=O)[nH]c(=O)n2C,i,9.8e-09,i,-0.5%,1%
CCC(C)(C)n1nnnc1C(c1cc2cc(OC)ccc2[nH]c1=O)N1CCc2ccccc21 (centres undefined),i,1e-09,i,5.3%,?
O=C(Nc1ccon1)c1cc(-c2ccccc2)nc2ccccc12,i,1e-09,i,1.4%,?
Cc1ccc(-c2nn(C)c(=O)c3ccccc23)cc1S(=O)(=O)N1CCCC1,nt,nt,nt,1.4%,49%
Cc1cc(C)n2c(SCCN3C(=O)c4ccccc4C3=O)nnc2n1,nt,nt,nt,-0.1%,-1%
Cc1ccc(Cl)c2c1NC(=O)C2(O)CC(=O)c1ccccc1O (centres undefined),i,1e-09,i,1.0%,2%
Cc1sc(NC(=O)c2oc3ccccc3c2C)c(C#N)c1C,i,1e-09,i,4.3%,-5%
COc1ccccc1-c1coc2cc(O)cc(O)c2c1=O,nt,nt,nt,1.6%,20%
CCN1CCN(CCCNC(=O)C2CCCN(c3nnc(-n4cccc4)s3)C2)CC1 (centres undefined),i,1e-09,i,0.2%,1%
CCOC(=O)c1cc2c(=O)n3cccc(C)c3nc2n(CCc2ccc(OC)c(OC)c2)c1=N,i,3.2e-08,i,3.4%,?
CN(CCNC(=O)Cn1c(=O)sc2ccccc21)Cc1ccccc1,nt,nt,nt,0.4%,5%
Fc1ccc(-c2noc(C3CCN(Cc4cccnc4)CC3)n2)cc1,i,6.7e-09,i,-1.2%,?
O=C(CCn1c(=S)[nH]c2ccccc2c1=O)N1CCOCC1,nt,nt,nt,-2.1%,-7%
O=C1CN2C(=N1)N(Cc1ccccc1)c1ccccc12,i,1.3e-09,i,-1.5%,15%
C=CCN1CCN(C(c2cc(OC)ccc2OC)c2nnnn2CC2CCCO2)CC1 (centres undefined),i,1.6e-08,i,-0.7%,?
Cc1ccc2[nH]c3c(NCCCN4CCCC4=O)ncnc3c2c1,i,1.6e-09,i,1.9%,2%
Cc1cc(NC(=O)CSc2nc(-c3ccco3)cc(C(F)(F)F)n2)n(-c2ccccc2)n1,i,7e-08,i,-2.4%,?
CCOC(=O)/C=C1\Nc2ccccc2SC1=O,i,1e-09,i,10%,-8%
CC1(C)OC(=O)C(=CNc2ncccn2)C(=O)O1,i,3.4e-09,i,-0.4%,-2%
CC(=O)N1CCc2cc(C(=O)CN3CCN(c4ccccc4F)CC3)ccc21,nt,nt,nt,4.7%,1%
CCOc1cc(C2NC(=O)NC(C)=C2C(=O)OC(C)CC)cc(Br)c1O (centres undefined),nt,nt,nt,-0.3%,15%
Cc1ccc(S(=O)(=O)CCC(=O)Nc2ccc3c(c2)OCO3)cc1,i,1e-09,i,0.5%,4%
Cc1c(/C(O)=C2/C(=O)C(=O)N(Cc3cccnc3)C2c2cccs2)cnn1-c1ccccc1 (centres undefined),i,5.8e-08,i,-1.0%,-14%
CN(C)Cc1cc(C(C)(C)C)ccc1-c1ccc(C(C)(C)C)cc1CN(C)C,i,1e-09,i,-0.8%[11.5 µM],0%[11.4 µM]
O=C(O)CCNc1cc2ccccc2cc1C(=O)O,nt,nt,nt,6.0%,-10%
CCOC(=O)Cn1c2ccccc2c2nc3ccccc3nc21,i,1.8e-08,i,2.1%,?
CCc1cc2c(nc1CC)CCN(CC/C(C)=N/O[C@@H](C)c1cn([C@@H]3COC[C@@H]3O)nn1)C2,nt,nt,nt,-0.1%[11.5 µM],-2%[11.4 µM]
O=C(Nc1cc(C(F)(F)F)ccc1N1CCOCC1)c1cncc(Br)c1,i,1.8e-08,i,2.2%,15%
COC(=O)c1ccccc1NC(=O)CSc1nnc(COc2cccc(OC)c2)n1C,i,5.5e-09,i,-0.5%,?
CC(O)CO (centres undefined),nt,nt,nt,1.0%&2.1%,7%&-2%
CCCCNC(=O)Cn1cnc2c(cnn2-c2ccc(C)c(C)c2)c1=O,i,4.6e-08,i,0.5%,7%
O=C(Cn1ncc2c(=O)oc3ccccc3c21)N1CCCc2ccccc21,i,5.9e-09,i,-2.1%,18%
CC(C)C(C(=O)Nc1ccc2c(c1)OCCO2)N1C(=O)c2ccccc2C1=O (centres undefined),nt,nt,nt,-0.6%,27%
CCOc1cc2[nH]c(=O)n(CCCN3CCCC3=O)c(=O)c2cc1OCC,i,3.8e-09,i,0.6%,-6%
CCN(CC)CCC(=O)NC(C)(C)Cc1ccc(O)cc1,i,2.9e-09,i,-0.1%,?
CCOC(=O)CN1CC23C=CC(O2)C(C(=O)NC2CCCCCC2)C3C1=O (centres undefined),nt,nt,nt,2.9%,?
Cc1nc(Cc2nnc(SCc3nc(N)nc(Nc4ccccc4C)n3)o2)cs1,i,4.1e-09,i,-0.4%,4%
CC(=O)c1c(C(C)=O)c(C)n(NC(=O)c2ccccc2O)c1C,i,1e-09,i,0.6%,-20%
Cc1nc2c(C(=O)NCCC3=CCCCC3)c[nH]n2c(=O)c1Cl,i,1.6e-09,i,-1.9%,nt
Cc1cc2c(cc1C)NC1=C(N2)O[C@H](c2c[nH]c3ccc(COc4ccccc4)cc23)C1=O,i,5e-08,i,-6.0%[11.5 µM],1%[11.4 µM]
Cc1ccc(C(c2nnnn2CCC(C)C)N2CCN(C)CC2)cc1 (centres undefined),i,4.6e-08,i,-0.1%,14%
Cc1nnc2n(-c3ccccc3)c(=O)c3c4c(sc3n12)CC(C)CC4 (centres undefined),i,3.5e-08,i,nt,nt
C=CCNc1nc(NC(C)(C)CO)nc(OCC)n1,i,1e-09,i,-0.2%,-1%[11.4 µM]
CCCCCCC1=Cc2cc(OC)c(OC)cc2C(CC(=O)/C=C/OC)O1 (centres undefined),nt,nt,nt,-2.3%[11.5 µM],-3%[11.4 µM]
CC(C)(c1cc(Br)c(O)c(Br)c1)c1cc(Br)c(O)c(Br)c1,nt,nt,nt,3.2%&-4.4%,?
CCn1cc(C(=O)Nc2cc3c(cc2NC(C)=O)OCCO3)c(=O)c2ccc(C)nc21,i,1e-09,i,-0.2%,-1%
Cc1ccc(-c2noc(CCC(=O)NCc3ccc4c(c3)OCO4)n2)cc1,i,2.3e-09,i,-0.6%,16%
COC(=O)c1cccc(NC(=O)CSc2nc(C)cc(=O)[nH]2)c1,i,1e-09,i,-1.2%,24%
COC(=O)[C@@]1(Cc2ccccc2)[C@H]2c3cc(C(=O)N4CCCC4)n(CCN4CNCC4=O)c3C[C@H]2CN1C(=O)c1ccccc1,nt,nt,nt,-1.5%,9%
CCOC(=O)c1ccc(Oc2nc(NC)nc(OC)n2)cc1,i,1e-09,i,-0.4%,-2%
COc1ccc(N2CCN(C(=O)CSc3nnc4nc(C)cc(C)n34)CC2)cc1,i,2.9e-08,i,0.1%,-4%
CC1CCCN(CC(=O)Nc2ccc(S(=O)(=O)N3CCCCCC3)cc2)C1 (centres undefined),i,1.2e-08,i,-0.7%,3%

Next section
Structure,A488 autofl,A647 autofl,Resorufin autofl,AID923,TSHR ag
c1nnc2c3c4c(sc3ncn12)CCCC4,i,2.3e-08,i,-1.5%,5%
Cc1nn2c3cc(N4CCOCC4)ccc3nc2c2ccccc12,i,5.3e-09,i,0.8%,15%
COc1c2c(nc3occc13)C(CCC(C)(C)O)(OC)C(O)CC2 (centres undefined),i,3.7e-08,i,1.1%,1%
Cc1cc(C)n(-c2nc3ccccc3nc2N2CCCCCC2)n1,i,4.6e-08,i,14%,?
O=C(Nc1ccc2oc(-c3ccccc3F)nc2c1)c1cncc(Br)c1,i,8.9e-09,i,-1.7%,-1%
COc1ccc(N2CCN(Cc3nc(N)nc(Nc4ccc(C)c(Cl)c4)n3)CC2)cc1,i,1e-09,i,-4.6%,-32%[inhibitor]
COc1ccc(S(=O)(=O)N2CCN(C)CC2)c2ccccc12,nt,nt,nt,2.7%,24%
Cc1cc(C2N=C(N)Nc3nc4ccccc4n32)c(C)n1-c1ccccc1Cl (centres undefined),i,1.9e-08,i,-1.3%,0%[11.4 µM]
Cc1cc(C)n(-c2nc3ccccc3c3nc(C)nn23)n1,nt,nt,nt,-0.9%,14%
O=C(CNCc1ccco1)Nc1ccccc1-n1cccc1,i,2.2e-08,i,-0.7%,3%
CCOC(=O)C1CCCN(C(=O)C2CCN(S(=O)(=O)N3CCC4(CC3)OCCO4)CC2)C1 (centres undefined),i,1.2e-08,i,-0.4%,-1%
CCCn1nnc2sc3c(c2c1=O)CCC(C)C3 (centres undefined),i,1e-09,i,2.3%,8%
O=[N+]([O-])c1ccc(NN=C2c3ccccc3Cc3ccccc32)c([N+](=O)[O-])c1,i,1e-09,i,1.9%[11.5 µM],-5%[11.4 µM]
CN1CCc2nc(SCC(=O)Nc3ccc(F)cc3)c(C#N)cc2C1,i,1e-09,i,16%,-2%
CN(C)c1ccc2c(c1)OC(N)=C(C#N)C2c1cccc(F)c1 (centres undefined),nt,nt,nt,12%,?
C/C(CCc1oc2ccccc2c1-c1ccc(C)o1)=N/O,i,1e-09,i,3.0%,nt
COc1ccc(CCNC(=O)c2nnn(CC(=O)Nc3ccccc3)c2N)cc1OC,i,1.6e-08,i,-0.6%,3%
COc1ccc(C2(CN(C(C)=O)C(C)=O)CCCC2)cc1OC,i,1e-09,i,nt,nt
CC1(C)CCCN(C(=O)c2coc(=O)c(Br)c2)C1,i,1e-09,i,5.0%,-4%
CCn1c(Cc2cccs2)nnc1SCC(=O)Nc1ccc(OC)c(OC)c1,i,2.4e-08,i,1.6%,-4%
CC1CN(S(=O)(=O)c2cccc(C(=O)OCC(=O)Nc3ccc4c(c3)OCO4)c2)CC(C)O1 (centres undefined),i,1.4e-08,i,0.9%,2%
COC(=O)c1[nH]c(C)c(/C(O)=C2\C(=O)C(=O)N(CCN(C)C)C2c2cc(OC)ccc2OC)c1C (centres undefined),i,4.4e-09,i,0.6%,1%
NCCNCC1CCNCC1,i,1.4e-09,i,3.4%[11.5 µM],4%[11.4 µM]
COCCCn1c(SCC(=O)OC2CCCCC2)nnc1-c1ccco1,i,4.5e-09,i,-2.9%,16%
